DUX4 inh: inhibitors of DUX4-driven ZSCAN4 reporter expression, primary screen, 293T cells, Gaussia and Italica luciferase | activity change, negative = inhibition, % (concentration not given with the values) | 293T-iDUX4 ZSCAN4-Gaussia luciferase reporter, 24 h; stronger effect = lower value | actives 0.8% (n = 37,000);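 active = -10% or lower and over 25 points stronger than a control reporter; inconclusive = -10% or lower with a smaller gap; inactive = above -10%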;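 also: 0% = median of neutral control wells and -100% = median of positive control wells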
DUX4 inh difference: further read-out of DUX4 inh, marked with its call; Gaussia minus Italica difference, %; measured here: selective DUX4 reporter inhibition;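 worked out from the two reporters; negative = selective loss of the DUX4 reporter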
DUX4 inh control: recorded beside DUX4 inh, whose call it bears; activity change, negative = inhibition, %; measured here: Italica tet-on control reporter;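 0 = neutral control and -100 = positive control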
* = called active by the depositor; ? = inconclusive; . = no result given. Some of the compounds tested. The share of hits here may be higher or lower than overall.

DUX4 inh	DUX4 inh difference	DUX4 inh control	Compound
3	2	0.1	CC(C)NC(=O)N(C)C[C@@H]1Oc2cc(-c3ccccc3)ccc2S(=O)(=O)N([C@H](C)CO)C[C@@H]1C
-1	-6	4.3	COc1cccc(-c2ccc3c(c2)[C@H]2[C@H](CCN2C(=O)CN2CCOCC2)[C@H](CO)N3)c1
?	.	.	C[C@@H]1CN([C@@H](C)CO)C(=O)c2c(c3ccccc3n2C)-c2ccccc2CO[C@H]1CN(C)C(=O)[C@H](C)c1ccccc1
-1	-2	0.6	CO[C@H]1CN(C)C(=O)c2ccc(NS(C)(=O)=O)cc2OC[C@H](C)NC[C@H]1C
-5	-8	3.4	COC(=O)C[C@@H]1CC[C@@H]2[C@H](COc3ccc(NC(=O)c4cscn4)cc3C(=O)N2C)O1
10	-6	16	CCCC(=O)N1CC2(CN[C@@H](CO)c3c2c2ccc(OC)cc2n3C)C1
0	-6	5.8	COC(=O)C[C@@H]1C[C@@H]2c3cc(NS(C)(=O)=O)ccc3O[C@@H]2[C@H](CO)O1
12	-7	18	C[C@@H](O)C#Cc1ccc([C@H]2[C@H](CO)N3CCCCN(C(=O)Nc4ccccc4)C[C@@H]23)cc1
4	-2	6.1	COc1cccc(NC(=O)C[C@@H]2CC[C@H]3[C@H](COc4ccc(NC(=O)c5ccccc5F)cc4C(=O)N3C)O2)c1
0	0	0.5	CC(C)OC(=O)N(C)C[C@@H]1OCc2cn(nn2)CCCC(=O)N([C@@H](C)CO)C[C@H]1C
-2	-2	0.3	C[C@@H]1CN([C@H](C)CO)S(=O)(=O)c2ccc(C#CC3CC3)cc2O[C@@H]1CN(C)C(=O)c1cccc(F)c1
-2	-2	-0.4	C[C@@H]1CN([C@@H](C)CO)C(=O)CCCn2cc(nn2)CO[C@H]1CN(C)Cc1ccc(C(F)(F)F)cc1
-1	3	-3.9	CC(=O)N1[C@H](C(=O)NCc2ccccc2Cl)[C@@H](CO)[C@@H]2Cn3c(ccc(-c4cccnc4)c3=O)[C@@H]21
-2	-4	2.3	COCC(=O)N(C)C[C@H]1Oc2cc(C#CC(C)(C)O)ccc2S(=O)(=O)N([C@H](C)CO)C[C@H]1C
-1	-6	5.0	COc1cccc(-c2ccc([C@H]3[C@@H](CO)N4C(=O)CN(C(=O)c5cccnc5)C[C@H]34)cc2)c1
4	0	3.3	O=C(Nc1ccc2c(c1)[C@H]1C[C@@H](CC(=O)N3CCOCC3)O[C@@H](CO)[C@H]1O2)Nc1ccccc1F
-4	-7	3.5	CO[C@H](CN(C)Cc1cc(F)ccc1F)[C@@H](C)CN(C(=O)Nc1ccc(F)cc1)[C@@H](C)CO
-2	-2	0.3	COc1ccc(NC(=O)N[C@H]2CC[C@H](CCNS(=O)(=O)c3cccc(Cl)c3)O[C@H]2CO)cc1
-10	-13	3.3	CN1c2ccc(Br)cc2[C@@H]2[C@@H](CCN2C(=O)Nc2cc(F)ccc2F)[C@@H]1CO
4	2	1.5	CN(C[C@@H]1[C@@H](c2ccccc2)[C@H](CO)N1C(=O)C1CC1)C(=O)c1ccccn1
-21*	-34*	13*	C[C@H](CO)N1C[C@H](C)[C@H](CN(C)S(=O)(=O)c2cccc(F)c2)OCc2ccccc2-c2ccccc2C1=O
-9	-16	6.9	O=C(C[C@H]1CC[C@H]2[C@@H](COC[C@H](O)CN2Cc2cccc(C(F)(F)F)c2)O1)NCc1ccc(Cl)cc1
6	8	-1.5	CN1c2ccc(C#Cc3cccnc3)cc2[C@H]2[C@H](CCN2C(=O)CN2CCOCC2)[C@@H]1CO
4	-5	8.9	CCC(=O)N1CC[C@@H]2[C@@H](CO)Nc3ccc(C#Cc4ccc(F)cc4)cc3[C@@H]21
2	5	-3.4	COc1ccccc1CNC(=O)C[C@@H]1C[C@H]2c3cc(N(C)C)ccc3O[C@H]2[C@H](CO)O1
-3	-4	1.2	C[C@@H]1CN([C@@H](C)CO)S(=O)(=O)c2ccc(-c3ccccc3F)cc2O[C@@H]1CN(C)C(=O)C1CC1
8	26	-18	CO[C@H]1CC[C@@H]2CCOc3ccc(C#N)cc3C(=O)N(C)[C@@H](C)C(=O)N(C)C[C@H]1O2
-6	-2	-4.3	C[C@@H]1CN([C@H](C)CO)C(=O)c2cc(NS(=O)(=O)c3ccc(Cl)cc3)ccc2O[C@@H](C)CCCCO[C@@H]1CN(C)C(=O)CCCN(C)C
9	6	2.4	COc1ccc(-c2ccc3c(c2)[C@@H]2[C@@H](CCN2C(=O)Cc2ccccc2)[C@H](CO)N3C)cc1
2	-2	4.1	N#C[C@H]1[C@H](c2ccc(C#CC3CCCC3)cc2)[C@@H](CO)N1C(=O)Cc1ccccn1
-3	-3	0.7	C[C@H]1CN([C@@H](C)CO)S(=O)(=O)c2ccc(-c3ccc(C#N)cc3)cc2O[C@H]1CN(C)Cc1cccc(F)c1
2	-2	4.8	CCCC(=O)Nc1ccc2c(c1)C(=O)N(C)[C@H]1CC[C@@H](CC(=O)N3CCCCC3)O[C@@H]1CO2
1	-1	2.5	CCS(=O)(=O)N1CC2(C1)[C@@H](c1ccccc1)[C@@H](CO)N2C(=O)C1CCCC1
-2	-3	0.7	N#C[C@@H]1N[C@H](CO)[C@@H]1c1ccc(C#CC2CCCC2)cc1
2	3	-0.2	CO[C@H]1CC[C@@H]2CCOc3c(C#N)cccc3C(=O)N(C)C[C@@H](OC)[C@@H](C)C(=O)N(C)C[C@H]1O2
8	4	4.5	O=C(C1CCCCC1)N1CC2(C1)[C@@H](c1ccccc1)[C@@H](CO)N2Cc1cncnc1
-4	2	-6.2	N#C[C@H]1N[C@H](CO)[C@@H]1c1ccc(C#Cc2cccnc2)cc1
4	3	0.1	C[C@@H]1CN([C@H](C)CO)C(=O)c2cccc(NC(=O)C3CCOCC3)c2O[C@H]1CN(C)S(=O)(=O)c1cn(C)cn1
7	3	3.7	CC=Cc1ccc2n(c1=O)C[C@H]1[C@H](CO)[C@@H](C(=O)NCCc3cn(C)cn3)N(C(=O)C3CCC3)[C@@H]21 (mixture of isomers)
0	1	-1.0	COc1ccc(NC(=O)Nc2ccc3c(c2)C(=O)N([C@@H](C)CO)C[C@H](C)[C@@H](CN(C)S(=O)(=O)c2cn(C)cn2)O3)cc1
2	1	0.8	C/C=C/c1ccc([C@H]2[C@@H](CO)N(CCC(F)(F)F)C23CN(C(C)=O)C3)cc1
-2	0	-2.0	Cc1ccccc1S(=O)(=O)N(C)C[C@H]1OCc2cnnn2CCCC(=O)N([C@@H](C)CO)C[C@H]1C
-6	-2	-4.0	O=C(NC1CCCCC1)N1CC(=O)N2[C@H](CO)[C@H](c3ccc(-c4cccc(F)c4)cc3)[C@@H]2C1
2	-2	4.0	COc1ccc(-c2ccccc2[C@@H]2[C@@H](CO)N(C(=O)C3CC3)[C@H]2C#N)cc1
9	13	-3.7	CCCNC(=O)N1CCC2(CC1)CN(C(=O)c1cccnc1)[C@@H](CO)c1[nH]c3cc(OC)ccc3c12
-4	-3	-0.6	C[C@H]1CN([C@@H](C)CO)S(=O)(=O)c2ccc(-c3ccccc3F)cc2O[C@H]1CN(C)Cc1cncnc1
32	24	8.6	CC(=O)N1CCCCN2[C@@H](CO)[C@H](c3ccc(Br)cc3)[C@@H]2C1
2	0	1.7	Cc1cc(C(=O)Nc2ccc3c(c2)C(=O)N(C)[C@@H]2CC[C@@H](CC(=O)NC4CCCC4)O[C@H]2CO3)no1

Sorted by value in DUX4 inh (high to low): 3 from the list above
DUX4 inh	DUX4 inh difference	DUX4 inh control	Compound
2	-2	4.1	N#C[C@H]1[C@H](c2ccc(C#CC3CCCC3)cc2)[C@@H](CO)N1C(=O)Cc1ccccn1
0	0	0.5	CC(C)OC(=O)N(C)C[C@@H]1OCc2cn(nn2)CCCC(=O)N([C@@H](C)CO)C[C@H]1C
-6	-2	-4.3	C[C@@H]1CN([C@H](C)CO)C(=O)c2cc(NS(=O)(=O)c3ccc(Cl)cc3)ccc2O[C@@H](C)CCCCO[C@@H]1CN(C)C(=O)CCCN(C)C

(further entries)
DUX4 inh	DUX4 inh difference	DUX4 inh control	Compound
?	.	.	O=C(c1ccccc1)N1CC[C@@H]2[C@H]1c1cc(C#CC3CCCCC3)ccc1N[C@@H]2CO
0	1	-1.1	O=C(NC[C@@H]1[C@@H](c2ccccc2)[C@H](CO)N1C(=O)Cc1cccnc1)C1CCC1
-3	-1	-1.9	COc1ccccc1C#Cc1ccc([C@@H]2[C@@H](CO)N(C(=O)C3CCCCC3)[C@H]2C#N)cc1
-2	-2	0.0	Cc1noc(C)c1S(=O)(=O)N(C)C[C@H]1Oc2c(NC(=O)c3ccc(-c4nccs4)cc3)cccc2C(=O)N([C@H](C)CO)C[C@@H]1C
0	-3	2.1	CO[C@@H]1CN(C)C(=O)c2ccc(NC(=O)Nc3ccccc3)cc2OC[C@@H](C)N(C(=O)CC2CC2)C[C@@H]1C
2	11	-8.8	O=C(C1CCCCC1)N1CC(=O)N2[C@@H](CO)[C@@H](c3ccc(-c4ccccc4F)cc3)[C@@H]2C1
?	.	.	COc1ccc2c3c([nH]c2c1)[C@H](CO)N(Cc1ccccc1)CC31CN(C(=O)c2ccccn2)C1
-4	-5	1.2	C[C@@H]1CN([C@H](C)CO)C(=O)c2cccc(NS(=O)(=O)c3ccc(F)cc3)c2O[C@H]1CN(C)Cc1ccc(Cl)c(Cl)c1
4	9	-4.8	O=C(C[C@H]1C[C@H]2c3cc(NC(=O)NC4CCCCC4)ccc3O[C@H]2[C@@H](CO)O1)NCCc1ccccc1
4	0	4.2	O=C(NCC1CC1)[C@@H]1[C@@H](CO)[C@@H]2Cn3c(ccc(-c4cccnc4)c3=O)[C@H]1N2C(=O)C1CCCCC1
-1	2	-2.3	COc1cccc(C#Cc2ccc([C@@H]3[C@@H](C#N)N[C@@H]3CO)cc2)c1
7	7	0.4	O=C(C[C@@H]1C[C@H]2c3cc(NC(=O)c4ccc5c(c4)OCO5)ccc3O[C@H]2[C@@H](CO)O1)NCC1CC1
2	-4	6.3	CCC(=O)N1C[C@H](O)COC[C@@H]2O[C@@H](CC(=O)NCc3ccccc3Cl)CC[C@H]21
-3	0	-3.0	COc1ccccc1C(=O)Nc1ccc2c(c1)OC[C@H](C)N(CC1CC1)C[C@@H](C)[C@@H](OC)CN(C)C2=O
0	-1	1.2	CCc1sc(N2[C@H](C#N)[C@H](c3ccccc3-c3ccccc3)[C@H]2CO)nc1C
-8	-8	-0.2	COc1ccc(CN2C[C@@H](O)COC[C@H]3O[C@@H](CC(=O)NCc4ccccc4Cl)CC[C@@H]32)cc1
6	9	-2.5	O=C(C[C@@H]1C=C[C@H](NC(=O)c2ccc(F)cc2)[C@H](CO)O1)NCCc1ccncc1
?	.	.	O=C1CN(S(=O)(=O)Cc2ccccc2)C[C@@H]2[C@@H](c3ccc(C#CCC4CCCC4)cc3)[C@H](CO)N12
4	9	-5.4	COCC(=O)N1CC[C@H]2[C@@H]1c1cc(-c3ccccc3)ccc1N(C)[C@H]2CO
?	.	.	CC=Cc1ccc2n(c1=O)C[C@H]1[C@H](CO)[C@@H](C(=O)Nc3ccc(-c4ccccc4)cc3)[C@@H]2N1CC (mixture of isomers)
-9	-7	-1.2	C[C@@H]1CN([C@@H](C)CO)C(=O)c2c(c3ccccc3n2C)-c2ccccc2CO[C@@H]1CN(C)C(=O)Nc1ccc(-c2ccccc2)cc1
2	-4	5.4	COc1cccc(S(=O)(=O)N(C)C[C@H]2Oc3cc(Br)ccc3S(=O)(=O)N([C@@H](C)CO)C[C@H]2C)c1
0	4	-3.9	O=C(C[C@H]1CC[C@@H]2[C@H](COC[C@H](O)CN2S(=O)(=O)c2ccccc2)O1)NCC1CCCCC1
-3	-11	8.3	CCCC(=O)N1CCC2(CC1)CN(C(=O)c1ccc(F)cc1)[C@H](CO)c1[nH]c3cc(OC)ccc3c12
3	4	-0.9	Cc1noc(C)c1NC(=O)Nc1ccc2c(c1)C(=O)N([C@@H](C)CO)C[C@@H](C)[C@@H](CN(C)C(=O)NC1CCCCC1)OCCCC[C@H](C)O2
-3	-2	-0.5	COC(=O)C[C@H]1CC[C@@H]2[C@@H](COc3ccc(NC(=O)c4cnccn4)cc3C(=O)N2C)O1
-2	1	-2.2	C[C@H]1CCCCO[C@@H](CN(C)Cc2ccccc2)[C@@H](C)CN([C@@H](C)CO)C(=O)c2cc(NC(=O)Nc3ccc(F)cc3)ccc2O1
?	.	.	O=C(Nc1ccc(C(F)(F)F)cc1)Nc1ccc2c(c1)[C@H]1C[C@@H](CC(=O)N3CCc4ccccc4C3)O[C@@H](CO)[C@H]1O2
0	3	-3.3	O=C(C1CCC1)N1C[C@H]2[C@@H](c3ccccc31)[C@@H](CO)N2Cc1ccccc1

In the list so far, ten have a cyano group:
DUX4 inh	DUX4 inh difference	DUX4 inh control	Compound
8	26	-18	CO[C@H]1CC[C@@H]2CCOc3ccc(C#N)cc3C(=O)N(C)[C@@H](C)C(=O)N(C)C[C@H]1O2
2	-2	4.1	N#C[C@H]1[C@H](c2ccc(C#CC3CCCC3)cc2)[C@@H](CO)N1C(=O)Cc1ccccn1
-3	-3	0.7	C[C@H]1CN([C@@H](C)CO)S(=O)(=O)c2ccc(-c3ccc(C#N)cc3)cc2O[C@H]1CN(C)Cc1cccc(F)c1
-2	-3	0.7	N#C[C@@H]1N[C@H](CO)[C@@H]1c1ccc(C#CC2CCCC2)cc1
2	3	-0.2	CO[C@H]1CC[C@@H]2CCOc3c(C#N)cccc3C(=O)N(C)C[C@@H](OC)[C@@H](C)C(=O)N(C)C[C@H]1O2
-4	2	-6.2	N#C[C@H]1N[C@H](CO)[C@@H]1c1ccc(C#Cc2cccnc2)cc1
2	-2	4.0	COc1ccc(-c2ccccc2[C@@H]2[C@@H](CO)N(C(=O)C3CC3)[C@H]2C#N)cc1
-3	-1	-1.9	COc1ccccc1C#Cc1ccc([C@@H]2[C@@H](CO)N(C(=O)C3CCCCC3)[C@H]2C#N)cc1
-1	2	-2.3	COc1cccc(C#Cc2ccc([C@@H]3[C@@H](C#N)N[C@@H]3CO)cc2)c1
0	-1	1.2	CCc1sc(N2[C@H](C#N)[C@H](c3ccccc3-c3ccccc3)[C@H]2CO)nc1C

Screening data: PubChem, Broad Institute
